Assay outcomes: PubChem BioAssay, National Center for Advancing Translational Sciences (NCATS)
Six1-Eya2 inh = inhibitors of human Six1/Eya2 interaction; activity change, % (concentration not given with the values); actives 0.56% (n = 360,000); AlphaScreen GST-Six1/His-Eya2 binding, biochemical; active compounds read low; control for the full effect not named in the record; Q15475+O00167; in the data active = activity change below about -65%; inconclusive = about -30% to -65%; inactive = above about -30%; further: on the % scale 0 is the no-effect control and ±100 the full control effect
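Homogeneous AlphaScreen proximity assay pairing GST-Six1 with His-tagged Eya2 (added as 5X mix: 250 nM and 500 nM) in 50 mM Tris pH 8.0, 300 mM NaCl, 1 mM TCEP. Glutathione donor and nickel acceptor beads; 1 h, 37 °C, dark.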
TRPML1 inh = blocks the human TRPML1 channel; TRPML1-inducible cells, Ca2+ dye fluorescence, FDSS; active compounds read low; inhibition of EC80 agonist-evoked calcium signal; activity change, negative = inhibition, % (concentration not given with the values); actives 0.02% (n = 390,000); AID 624415; in the data active means activity change below about -50%; inconclusive means about -30% to -50%; inactive means above about -30%;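 further: stimulus is agonist 54-4 at its EC80 concentration; on the % scale 0 is the no-effect control and ±100 the full control effect; the text of the record puts the active cut at -80%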
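Tet-induced TRPML1-DL cells loaded with Ca8 no-wash calcium dye were read kinetically on FDSS. Compound addition was followed by EC80 agonist 54-4 (4 uM final); inhibition was read over 110 s.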
D2 PAM = positive allosteric modulators of human D2 dopamine receptor. potentiation, % (no concentration beside the values). actives 0.23% (n = 360,000). P14416. DiscoveRx D2 beta-arrestin cells, luminescence, 90 min; 100% = 57 uM dopamine signal; active = potentiation of 50% or more; inconclusive = 30% to 50%; inactive = 30% or less;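 further: compound concentration not given in the record; tested on top of an EC20 dose of dopamine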
Target sequence (P14416 whole entry, looked up): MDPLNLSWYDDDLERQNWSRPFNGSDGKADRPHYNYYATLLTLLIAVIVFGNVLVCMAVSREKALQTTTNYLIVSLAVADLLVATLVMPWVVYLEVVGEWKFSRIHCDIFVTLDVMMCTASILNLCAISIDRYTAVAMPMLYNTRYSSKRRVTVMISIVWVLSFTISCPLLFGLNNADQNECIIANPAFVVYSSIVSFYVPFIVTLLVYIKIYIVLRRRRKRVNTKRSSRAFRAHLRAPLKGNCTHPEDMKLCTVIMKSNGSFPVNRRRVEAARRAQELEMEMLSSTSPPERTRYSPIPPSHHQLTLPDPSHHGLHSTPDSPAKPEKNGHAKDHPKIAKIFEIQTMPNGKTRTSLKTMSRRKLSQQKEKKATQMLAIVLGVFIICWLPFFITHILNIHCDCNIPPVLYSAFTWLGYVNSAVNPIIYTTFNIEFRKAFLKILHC
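D2 cells co-treated with compound plus 50 nM dopamine (EC20) for 90 min at 37 deg C to detect potentiation. Beta-arrestin recruitment was read as enzyme-fragment luminescence after 1 h at ambient temperature. Full response was set by 57 uM dopamine.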
D2 ag = agonists of human D2 dopamine receptor (beta-arrestin); DiscoveRx PathHunter D2 beta-arrestin, luminescence, 90 min; 100% = 57 uM dopamine signal; actives 0.084% (n = 360,000); P14416; activation, % (test concentration not listed); in the data active = activation above about 40%; inconclusive = about 15% to 40%; inactive = below about 15%; further: compound concentration not given in the record; the text of the record calls up to 30% inactive
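Agonist mode: compounds alone added to overnight-plated D2 PathHunter cells for 90 min at 37 C, with 57 uM final dopamine (EC100) defining full response. Beta-arrestin recruitment detected by chemiluminescent reagent, read after 1 h at ambient temperature.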
TRPML1 agonist = agonists of human TRPML1 channel; Q9GZU1; TRPML1-expressing cells, Ca2+ dye fluorescence, FDSS; host cell line not named in the record; reference of the full effect not given here; activation, % (test concentration not listed); actives 0.12% (n = 410,000); AID 624414; in the data active = activation above about 50%; inconclusive = about 30% to 50%; inactive = below about 30%; further: 0% is about no effect; the text of the record puts the active cut at 80%
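Kinetic FDSS Ca2+ read in Tet-induced TRPML1-DL cells (ABD Ca8 dye plus quencher, 45-90 min RT loading): baseline, then compound, then 110 s agonist window; EC80 agonist 54-4 at 4uM final added afterwards for a 110 s antagonist window.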
PINK1 modulator = modulators of PINK1 expression | PINK1 immunofluorescence, high-content cytometry, 24 h | Potency, µM (highest dose often 76.6 µM), inactives show at the top dose activation (PINK1 increase), usual class: activators | actives 0.2% (n = 410,000) | AID 624263; active = well fitted activation curve with a large enough effect; inconclusive = small, poorly fitted or top-dose-only effect; inactive = flat fitted curve, though single readings scatter; cell line not stated here;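 further: potency means the concentration at half of the fitted maximal effect; % of control where 0% means no effect; nearly all actives have a fitted effect of over 65% in size; a mitochondrial uncoupler was the plate control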
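Cells are seeded, rested 12 hours, then given compound at five concentrations or DMSO for 24 hours. After fixation, blocking and antibody staining, PINK1 amount and mitochondrial localization are scored; CCCP serves as control.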
The depositor's hits bear a star; ? = inconclusive; · = no result given; & = joins results of further samples; [ ] = remark or other dose.

SMILES	Six1-Eya2 inh	TRPML1 inh	D2 PAM	D2 ag	TRPML1 agonist	PINK1 modulator
CN(C(=O)c1ccc(S(=O)(=O)N2CCCC2)cc1)C1CCS(=O)(=O)C1 (configuration not stated)	5	11	-12	-3.9	-0.5	?
O=C(CCCC(=O)N(c1cccc(F)c1)C(C(=O)NC1CCCC1)c1ccc(O)cc1)Nc1ccccn1 (configuration not stated)	9	-1	-7	-8.3	-1.6	8.5%
COc1cc(-c2cc(N)n(S(=O)(=O)c3ccccc3)n2)cc(OC)c1OC	-4	-1	-6	-0.5	-1.0	4.9%
O=C(O)CCN1CCc2ccccc21	-2	30	0	0.0	-0.5	-0.9%
Cc1cccc(N2CCN(C(=O)Cn3c(=O)c4cccn4c4ccc(F)cc43)CC2C)c1 (configuration not stated)	·	66	·	·	1.3	4.6%
Cc1ccccc1S(=O)(=O)Oc1ccc2ccc(O)cc2c1	1	-1	6	10	1.4	7.5%
COc1cc(-c2nc3c4ccccc4nc(=S)n3[nH]2)cc(OC)c1OC	7	4	4	7.5	-0.7	5.0%
COc1cccc(CN2CCN(CC(=O)NCCc3ccccc3)CC2)c1	16	4	-7	4.2	0.7	-0.2%
CCOc1ccccc1C(=O)NC(C(=O)Nc1cccc(S(N)(=O)=O)c1)C(C)C (configuration not stated)	-10	-12	-16	-1.7	0.4	1.0%
CCCNC(=O)COc1ncnc2sccc12	-8	8	7	7.1	-0.3	-0.6%
CCc1ccc2oc(=O)cc(CN3CCCCC3C)c2c1 (configuration not stated)	7	3	-7	-2.9	-0.5	1.9%
COc1ccccc1NC(=O)C(C)OC(=O)CSCC(=O)Nc1cc(C)on1 (configuration not stated)	3	-9	5	0.6	-1.4	1.7%
CCN1C(=O)C(=Cc2cccc(OC)c2Oc2ccc([N+](=O)[O-])cc2[N+](=O)[O-])SC1=S	-27	8	12	4.4	1.2	-0.5%
O=C(NCC1CCCN1S(=O)(=O)c1cccs1)c1cccc(Cl)c1 (configuration not stated)	9	-9	7	-1.2	0.5	-0.1%
Cc1nc2ccccn2c1C(=O)NNC(=S)Nc1ccc(Cl)cc1	-4	-17	-27	-6.5	-0.6	3.8%
c1cncc(CNCc2ccco2)c1	6	-15	-1	10	0.2	0.4%
Cn1cc(C(=O)NCC(=O)Nc2ccccc2Br)cn1	-1	6	-4	-4.4	-0.6	0.2%
Cc1ccc(NC(=O)CN2C(=O)NC3(CCCc4ccccc43)C2=O)c(C)c1 (configuration not stated)	0	13	-13	-6.5	0.3	0.6%
Cc1cc(C)cc(NC(=O)C2CCCN(c3nnc(-n4c(C)ccc4C)s3)C2)c1 (configuration not stated)	·	-5	·	·	-0.6	1.5%
O=C(c1ccccc1)n1c2ccccc2c(=O)n1-c1ccccc1CCl	?	·	12	?	-0.3	0.4%
O=C(COc1ccc([N+](=O)[O-])cc1)NNC(=O)Nc1ccc([N+](=O)[O-])cc1	-25	31	-51	-1.2	0.9	2.9%
COc1ccc(NC(=O)CSc2nnc(NC(=O)Nc3ccccc3)s2)cc1OC	·	-4	·	·	-1.0	0.4%
O=C(NNC(=S)Nc1ccccc1)c1cc(-c2cccnc2)nc2ccccc12	-22	23	-17	-4.7	-0.3	1.2%
CCCCOc1ccc(C(=O)Nc2ccc3c(c2)CCCN3C(=O)c2cccs2)cc1	·	17	·	·	0.4	3.1%
CC1(C(=O)NS(=O)(=O)c2cccc(C#N)c2)CCN1C(=O)c1ccccc1 (configuration not stated)	12	19	-11	-4.0	-0.1	-0.4%
CCn1cc(S(=O)(=O)NCc2ccc(OC)cc2)cn1	5	0	-21	0.8	0.1	-0.8%
O=C(NCc1ccc(Cl)cc1)c1ccc(Cn2cc(C(F)(F)F)ccc2=O)cc1	5	0	-9	-2.1	-0.2	-8.5%[38.3 µM]
CCN1CCN(CCC(=O)Nc2cc(OC)ccc2OC)CC1	-3	-15	-5	1.0	0.0	-0.8%
CCOc1ccc(N2C(=O)CC(Sc3nc4ccc(OCC)cc4s3)C2=O)cc1 (configuration not stated)	-6	41	-13	-2.0	-0.1	-1.6%
Cc1occc1C(=O)NNC(=S)NCc1ccccc1	12	-6	0	-4.1	0.9	0.8%
CC(C(=O)OCc1nnc(-c2ccccc2)o1)N1C(=O)C2CCCCC2C1=O (configuration not stated)	5	24	-2	-3.6	1.1	2.5%
COc1cccc2sc(N(Cc3cccnc3)C(=O)c3ccc(S(=O)(=O)N(C)C)cc3)nc12	·	9	·	·	0.4	12%
Cc1cc(C)c(S(=O)(=O)c2ccccc2C)c(SCC(C)C)n1	26	47	0	-3.1	3.6	14%
Cn1c(CC(=O)Nc2ccccc2)cc2ccccc21	8	5	-4	-5.4	-0.3	1.8%
O=C(NC1CCCCC1)c1cc(S(=O)(=O)N2CCCCC2)ccc1N1CCOCC1	4	4	-5	-2.5	-1.2	0.0%
CCOC(=O)CN1C(=O)C(C)(C)Oc2ccc(C(=O)Nc3ccccc3)cc21	2	-6	2	0.0	-0.1	-1.4%
C=CCOc1ccc(C2C(C(=O)c3ccc(C)o3)=C(O)C(=O)N2Cc2cccnc2)cc1 (configuration not stated)	0	-14	-2	-1.0	1.1	1.6%
O=C(Nc1ccccc1C(=O)N1CCOCC1)c1ccc(F)cc1	9	7	-2	1.2	-0.6	-1.5%
CCN(C(=O)CCC(=O)N(CC)c1ccccc1)c1ccccc1	-3	-8	1	0.5	1.4	-1.1%
COc1cccc(CNC(=O)C2CCCN(c3nn4c(=O)cc(C)nc4s3)C2)c1OC (configuration not stated)	-4	-10	0	-3.6	-0.1	-1.0%
COC(=O)CSc1nc(C)cc(Oc2ccccc2)n1	2	5	-8	-1.6	-0.9	-0.1%
CC12CCC(C(=O)NCc3cccnc3)(OC1=O)C2(C)C (configuration not stated)	10	-3	9	-2.1	0.5	0.2%
Cc1ccc(C(=O)COC(=O)CNC(=O)CN2C(=O)c3ccccc3C2=O)cc1	4	6	-7	2.1	-0.9	-0.3%
CCOc1ccc(NC(=O)CSc2ncn[nH]2)cc1	2	-1&-11	-15	-1.0	-0.2&-0.5	-0.6%&1.2%
CCCCC(=O)Nc1nnc(SCC(=O)NC2CCCC2)s1	4	15	0	-0.7	0.2	3.4%
CCOC(=O)CSC1=C(C#N)C(c2ccc(Cl)cc2)CC(=O)N1 (configuration not stated)	2	53	-6	-1.0	0.3	4.7%
CCc1noc(C)c1C(=O)OCC(=O)c1ccccc1OC	8	-1	-5	3.1	2.6	-0.1%
O=c1c(N=Nc2ccccc2)c[nH]n1-c1ccccc1	?	57	-10	-3.6	0.2	4.9%
Cc1ccc(CC(=O)Nc2nc3ccccc3s2)cc1	-3	1	5	-0.6	0.1	0.4%
Cc1cccn2c(=O)c3cc(C(=O)NCC4CCCO4)c(=N)n(CCN4CCOCC4)c3nc12 (configuration not stated)	-1	-10	?	-4.3	-0.1	0.0%
O=C(CSc1nc(=O)[nH]c2c1CCCC2)NCc1ccc(Cl)cc1	·	26	·	·	-0.8	-0.8%
COC(=O)[C@H](Cc1ccccc1)NS(=O)(=O)c1ccc(F)cc1Br	2	17	-3	0.2	-1.1	-0.7%
CC(=O)c1ccc(OCc2c(-c3ccccc3)nnn2CC(=O)NS(=O)(=O)c2ccccc2C)cc1	0	·	0	-4.0	-0.5	-0.2%
CN(C)S(=O)(=O)N1CCC(Oc2cccc(C(=O)N3CCCCCC3)c2)CC1	0	-8	-11	-5.7	0.2	3.9%
CCCC1(C)C(C#N)C(=O)NC(=O)C1C#N (configuration not stated)	-2	-6	-9	-3.1	0.3	2.4%
CCSc1ncc(C#N)c(=O)[nH]1	-3	-2	-2	-1.4	-0.1	2.1%
CC(=O)c1c(C(C)=O)c(C)n(NC(=O)c2ccc(Cl)cc2)c1C	-20	0	-16	-3.0	-0.2	-0.6%
NC(c1ccccc1)c1csc(Nc2ccc(C(=O)c3ccccc3)cc2)n1 (configuration not stated)	-10	·	-4	4.6	-0.3	8.9%
CC(C)(C)C(=O)/C=c1\s/c(=C\c2ccc(-c3ccc([N+](=O)[O-])cc3)o2)c(=O)n1CC(=O)NC(N)=O	-3	-6	4	3.9	?	2.5%
CCn1c(SCC(=O)c2c[nH]c3ccccc23)nnc1-c1cccs1	-7	7	-16	-1.6	1.3	13%

The list continues.
SMILES	Six1-Eya2 inh	TRPML1 inh	D2 PAM	D2 ag	TRPML1 agonist	PINK1 modulator
Cc1ccc(C(=O)N/C(=C/c2ccco2)C(=O)NCCc2c[nH]c3ccccc23)cc1	-12	32	-15	-0.3	2.0	0.4%
COc1ccccc1C(=O)Nc1cc(Cl)ccc1O	5	1	-6	1.3	-0.1	-2.1%
CC(C)(C)C(=O)Nc1ccc(-c2nc3ccc(NC(=O)C(C)(C)C)cc3[nH]2)cc1	·	10	·	·	2.0	?
Cc1ccc2c(c1)C1CN(C)CCC1N2C(=O)c1ccc(Cl)c(S(=O)(=O)N2CCOCC2)c1 (configuration not stated)	3	3	-8	-2.4	-0.3	-0.3%
COc1cc2cc(CN(Cc3nnnn3Cc3ccccc3)CC3CCCO3)c(=O)[nH]c2cc1OC (configuration not stated)	-5	-7	-14	-2.6	-0.4	-1.9%
O=C(/C=C/c1ccco1)Nc1nc(-c2ccc(F)c(F)c2)cs1	-2	-2	-10	-1.6	-0.6	2.7%

Three of the entries above in order of the Six1-Eya2 inh value, low to high.
SMILES	Six1-Eya2 inh
COc1cc2cc(CN(Cc3nnnn3Cc3ccccc3)CC3CCCO3)c(=O)[nH]c2cc1OC (configuration not stated)	-5
Cc1ccc2c(c1)C1CN(C)CCC1N2C(=O)c1ccc(Cl)c(S(=O)(=O)N2CCOCC2)c1 (configuration not stated)	3
COc1ccccc1C(=O)Nc1cc(Cl)ccc1O	5
